Screening results: PubChem, several laboratories
BJeLR lethal: kills HRASV12-expressing BJeLR cells. BJeLR (HRASV12) viability, CellTiter-Glo ATP luminescence, 48 h; reference of the scale not given here. inhibition, % (test concentration not listed). hit rate 0.17% among 300,000;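 active = replicate mean above 50%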;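 note: 50 nL library stock added to about 25 µL; numbers are from one replicate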
Mtb hypoxia rep: reduces hypoxia-regulated biosensor signal in M. tuberculosis | hit rate 0.1% among 300,000 | fluorescence inhibition, % (test concentration not listed) | M. tuberculosis hypoxia-regulated fluorescent reporter, fluorescence;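 active = 35 to 45% if threefold the growth effect, above 45% if 1.5-fold the growth effect; inactive = the rest, general growth blockers included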;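 note: wells of about 50 µL received 100 nL stock; 0% = vehicle wells and 100% = reference inhibitor wells; whole bacteria with a GFP reporter of the hypoxia response; strong numbers were not always called active; many hits fall short of the cut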
Bead autofluor: flagged as autofluorescent in microsphere protease counterscreen; compound autofluorescence counterscreen, microsphere flow cytometry; stronger effect = higher value; fluorescence intensity (no concentration beside the values); hit rate 3.1% among 360,000; AID 624483;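 active = at least 3 SD above the mean of all compounds, about 16000 in these data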;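 note: 100 nL of 1 mM stock went into each well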
PrP UTR inh: inhibition of PrP 5' UTR reporter expression. cell-based PrP 5' UTR mRNA reporter, plate reader. inhibition, % (no concentration beside the values). hit rate 0.35% among 340,000;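 active = every replicate at 50% or more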;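 note: 0 = median of the neutral control wells; tested in H4 reporter cells; numbers are from one replicate; inactives centre near -14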
Sa RN4220 lethal: kills Staphylococcus aureus RN4220; S. aureus RN4220 growth, OD600, 16 h; inhibition, % (test concentration not listed); hit rate 0.33% among 330,000;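 active = z-score of -3 or lower and OD600 up to 0.18 on both plates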;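 note: plate controls were untreated cells for no effect and reference antibiotic for full effect; stock transfer was 100 nL into about 80 µL; one replicate is shown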
Sa ugtP lethal: compounds lethal to S. aureus RN4220 ugtP deletion mutant | OD600 growth, 16 h; some inactives read as strong as hits | growth inhibition, % (concentration not given with the values) | hit rate 0.54% among 330,000 | AID 1259309;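 active = z-score under -3 and OD600 up to 0.15 on both plates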;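 note: plate controls were untreated wells for no effect and antibiotic for full effect; wells of about 80 µL received 100 nL stock; the first replicate is given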
Mtb hypoxia rep growth: further read-out of Mtb hypoxia rep, marked with its call; growth inhibition, %; measured here: M. tuberculosis growth (absorbance);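 0% = vehicle and 100% = reference antibiotic; read after six days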
* hit, by the source's call; nt = not tested or not shown.

Below each SMILES: BJeLR lethal, Mtb hypoxia rep, Mtb hypoxia rep growth, Bead autofluor, PrP UTR inh, Sa RN4220 lethal, Sa ugtP lethal
O=CN1CCN(C=O)C(O)C1O (stereo unspecified)
→ nt, 6, 6, 3781, -24, 7.4, 1
C=CCNC(=S)Nc1cc(Cl)ccc1OC
→ 9, 11, 3, 2141, -89, 0.9, 0
CCC(C)n1c(SCC(=O)Nc2ccc3[nH]c(=O)[nH]c3c2)nc2ccccc2c1=O (stereo unspecified)
→ 8, 1, -1, 3804, -15, 2.5, 6
CCC1CN(C(=O)NCc2cccc(OC)c2)c2ccccc2O1 (stereo unspecified)
→ 6, 0, 4, 3853, -48, 1.7, 7
CC(=O)Nc1ccc(OCC(O)CN2CCN(S(=O)(=O)c3ccc(NC(C)=O)cc3)CC2)cc1 (stereo unspecified)
→ 6, -3, 6, 11196, -7, 0.2, 0
Cn1c(SCC(=O)NC2CC2)nnc1-c1ccccn1
→ 7, 13, -6, 4775, -20, 0.8, 5
CCN=c1scc(-c2ccco2)n1N=Cc1ccc(OC)c(O)c1
→ nt, 7, -2, nt, nt, 0.4, 41
N#Cc1nc(-c2cccs2)oc1NCCc1ccccc1
→ 5, nt, nt, 2093, -12, -2.9, -1
COc1ccccc1-c1ccc(Nc2cccc(C(F)(F)F)c2)nn1
→ -4, 3, 8, 2907, -14, -14, -6
Cn1c(N)c(C(=O)COC(=O)COc2ccccc2Cl)c(=O)n(C)c1=O
→ nt, -7, -5, 4456, 0, 7.7, 11

Next results follow:
Below each SMILES: BJeLR lethal, Mtb hypoxia rep, Mtb hypoxia rep growth, Bead autofluor, PrP UTR inh, Sa RN4220 lethal, Sa ugtP lethal
CCOC(=O)N1CCN(S(=O)(=O)c2cc(OCC(N)=O)c(C)cc2Cl)CC1
→ -14, 11, 2, nt, -1, -4.6, -1
CN(C)S(=O)(=O)c1ccc(N2CCCC2)c(C(=O)OCC(=O)N2CCN(c3ccccc3)CC2)c1
→ -17, 4, -6, 4723, -1, 3.8, 11
Clc1ccc(COn2ccnc2)cc1Cl
→ 0, -2, 1, 4500, -33, 0.6, 10
O=c1cc(CN2CCN(c3ccc(F)cc3)CC2)nc2sccn12
→ -3, 4, 2, 3307, -15, 4.0, 0
CCc1ccc(N2CN=c3s/c(=C\c4ccccc4)c(=O)n3C2)cc1
→ -11, nt, nt, 3205, -23, nt, nt
O=S(=O)(/C=C/c1ccccc1)NC1CCCCCCC1
→ -4, 11, -2, 2611, -12, 9.0, -19
CCc1ccccc1NC(=O)CNCc1ccccc1
→ -2, 9, 0, 3710, -13, 4.6, 4
CCCCC(c1nnnn1CC1CCCO1)N1CCN(c2ccccc2)CC1 (stereo unspecified)
→ 1, -5, 4, 4732, 0, 1.6, -9
O=C(Cn1ccnc1)c1ccc(O)c(O)c1
→ nt, 12, 2, 3747, -8, 4.4, -5
COc1ccc(Nc2nc(C)cc(C)c2C(N)=O)c(OC)c1
→ 16, 6, 8, 9476, -15, 6.6, 1

(cont.)
Below each SMILES: BJeLR lethal, Mtb hypoxia rep, Mtb hypoxia rep growth, Bead autofluor, PrP UTR inh, Sa RN4220 lethal, Sa ugtP lethal
Oc1ccc(C(=S)N2CCCCC2)cc1Cl
→ 5, 2, 6, 24104*, -46, 1.7, 0
CCC(C)NC(=O)Cn1cc2c(n1)CCC(C)C2 (stereo unspecified)
→ -11, nt, nt, 6140, 0, 1.4, -1
Cc1ccc2nc(C3CCCCC3)[nH]c2c1
→ -12, 25, 45, 5341, -47, 4.4, -2
Cc1nnsc1C(=O)N/N=C/c1ccc2ccccc2c1O
→ 61*, nt, nt, 2653, 48, nt, nt
O=C(CCCCCNC(=O)N1CCn2c1nc1ccccc12)NCc1ccccc1Cl
→ -5, 4, 7, 5301, -18, -5.0, 4
O=C(CCN1C(=O)/C(=C/c2ccc(F)cc2)SC1=S)NCCCn1ccnc1
→ 8, 9, 2, 5687, -13, 4.4, -4
CCCCOC(=O)CSC1=C(C#N)C(c2cccnc2)C(C(=O)OCC)=C(c2ccccc2)N1 (stereo unspecified)
→ 4, -4, 0, 3322, -12, -6.2, 1
Cc1ccc(-n2nnnc2-c2nc3ccccc3s2)cc1
→ 2, 8, 15, 2579, -13, 7.0, 7
Cc1ccccc1Cn1c2ccccc2c2cnn(CC(=O)NCc3ccccn3)c(=O)c21
→ 3, 1, 1, 6239, -22, 0.6, -1
O=C(COc1ccccc1F)NCc1ccc(-n2cccc2)cc1
→ 16, 0, 6, 6265, -26, 16, 8

(further entries)
Below each SMILES: BJeLR lethal, Mtb hypoxia rep, Mtb hypoxia rep growth, Bead autofluor, PrP UTR inh, Sa RN4220 lethal, Sa ugtP lethal
Cc1ccc(NC(=O)c2ccsc2)cc1NS(C)(=O)=O
→ 6, 10, 12, 5477, -2, 7.1, 3
Cc1cc2cc(C(c3nnnn3Cc3ccco3)N3CCc4ccccc43)c(=O)[nH]c2cc1C (stereo unspecified)
→ -7, -6, 7, 2868, -14, 4.5, -16
Cc1ccc(CN2C(=O)NC(=O)C3(Cc4c(nc5ccccn5c4=O)N4CCCCCC43)C2=O)cc1 (stereo unspecified)
→ -18, 2, 9, 5676, -17, 0.4, -7
O=C(Nc1cccc(-c2nn[nH]n2)c1)c1cccs1
→ -10, 7, 6, 6122, -14, -0.4, 5
COCC(=O)N/N=C(\C)CC(=O)NCc1ccco1
→ -1, nt, nt, 2474, -26, nt, nt
COc1ccc(CNC(=O)CCCSc2ccccc2)cc1
→ 6, 3, 5, 3636, -3, -3.3, 10
COc1ccc(OC)c(C2C(C(N)=O)=C(C)Nc3nc(-c4cccc(Cl)c4)nn32)c1 (stereo unspecified)
→ 0, 7, 11, 4751, -23, 5.5, 13
COC(=O)CSc1nc2cc3c(cc2cc1C)OCCO3
→ -6, 8, 4, 13228, -14, 17, 1
CC1CN(C(C)CO)C(=O)c2cccc(NC(=O)Nc3ccccc3)c2OC1CN(C)S(=O)(=O)c1cccs1 (stereo unspecified)
→ nt, 5, 7, nt, nt, 8.0, 16
CO/C([O-])=N/c1c[n+](-c2ccc(Cl)cc2)no1
→ 3, 14, 14, 3781, -15, 1.6, 0

Going on with the list.
Below each SMILES: BJeLR lethal, Mtb hypoxia rep, Mtb hypoxia rep growth, Bead autofluor, PrP UTR inh, Sa RN4220 lethal, Sa ugtP lethal
Cc1ccc2nc(NC(=O)c3ccco3)sc2c1
→ 10, nt, nt, 2433, 59*, -0.5, -7
CCOc1cc(N2CCOCC2)c(OCC)cc1NC(=O)COc1cccc(CC)c1
→ nt, -1, -2, 3771, -11, 12, 7
O=Cc1ccc(OC(=O)CCCCC(=O)Oc2ccc(C=O)cc2)cc1
→ 2, 0, 2, 3511, -8, 3.3, 0
CC1CCCN(C(=O)Cn2c(=O)oc3ccccc32)C1 (stereo unspecified)
→ -2, 3, 3, 3851, -5, 2.9, 2
COc1ccc(NC(=O)CCNC(=O)Cn2cnc3ccccc3c2=O)cc1OC
→ -4, 0, 6, 3503, -8, -1.0, 14
Cn1c(SCC(=O)Nc2cccc(F)c2)nc2c(c1=O)SCC2
→ 4, 5, 6, 5227, -2, 1.0, 2
CN(c1ccccc1)S(=O)(=O)c1cccc(C(=O)NC2CCCCC2)c1
→ nt, 1, 9, 8018, -9, 2.7, -3
C=CCNCCOc1cccc(Br)c1
→ -13, 2, 15, 7449, 3, -4.4, 1
CCc1nnc(NC(=O)c2ccc(S(=O)(=O)N3CCCCC3C)cc2)s1 (stereo unspecified)
→ 7, 3, 5, 4342, -10, 3.7, 1
CCOC(=O)c1cc(-c2ccc(Cl)cc2)nc2c1c(C)nn2CCC#N
→ -4, -12, 11, 3036, -9, 16, 14

New compounds follow.
Below each SMILES: BJeLR lethal, Mtb hypoxia rep, Mtb hypoxia rep growth, Bead autofluor, PrP UTR inh, Sa RN4220 lethal, Sa ugtP lethal
CCOc1ccc(NC(=O)CN2C(=O)C3CC=CCC3C2=O)cc1 (stereo unspecified)
→ -2, 10, 2, 8562, -19, 1.7, -4
COc1ccc(-n2c(C)cc(C(=O)Cn3nc(C(=O)O)c4ccccc4c3=O)c2C)cc1
→ -14, -1, 7, 2196, -15, -5.5, 7
COc1cccc(OC)c1C(=O)NC(C)C12CC3CC(CC(C3)C1)C2 (stereo unspecified)
→ 1, nt, nt, 3724, -14, 15, 70
NNC(=O)c1cccc(COc2cccc(Br)c2)c1
→ -4, 8, 6, 7988, -2, 7.0, -1
CC1=C(C(=O)OCC(C)C)[C@]23C(=O)c4ccccc4[C@@]2(O1)OC(N)=C3C#N
→ 5, 15, 7, 4264, -5, 2.1, 4
COc1cccc(NS(=O)(=O)c2ccc3c(c2)NC(=O)C(C)S3)c1 (stereo unspecified)
→ 12, 1, -5, 5291, -25, 24, -1
CCOc1ccc(NC(=O)CSc2nnnn2-c2ccc(C(N)=O)cc2)cc1
→ 7, 11, -1, 3710, -28, 5.7, 4
CC(C)c1ccccc1OCC(=O)N1CCCCCCC1
→ 0, 22, 8, 3875, -6, 13, 10
CCN(CC)C(=O)c1ccc(NC(=O)CNC(C)c2cccc3ccccc23)cc1 (stereo unspecified)
→ -8, 3, 3, 3635, -13, 4.8, 13
COc1ccc(C=NNC(=O)CON=C(C)c2cccs2)cc1
→ nt, 0, -2, nt, nt, 1.2, 10

3 compounds from above with just PrP UTR inh and Mtb hypoxia rep growth.
Compound	PrP UTR inh	Mtb hypoxia rep growth
COc1ccc(-n2c(C)cc(C(=O)Cn3nc(C(=O)O)c4ccccc4c3=O)c2C)cc1	-15	7
CCOc1ccc(NC(=O)CN2C(=O)C3CC=CCC3C2=O)cc1 (stereo unspecified)	-19	2
CC1=C(C(=O)OCC(C)C)[C@]23C(=O)c4ccccc4[C@@]2(O1)OC(N)=C3C#N	-5	7

More records.
Below each SMILES: BJeLR lethal, Mtb hypoxia rep, Mtb hypoxia rep growth, Bead autofluor, PrP UTR inh, Sa RN4220 lethal, Sa ugtP lethal
O=[N+]([O-])c1ccc(-c2ccc(C=Nc3c(-c4ccco4)nc4ccccn34)o2)c(Cl)c1
→ nt, 4, 7, nt, nt, 16, -8
CCOC(=O)C1=CSC2=NS(=O)(=O)CCN12
→ 1, 4, 7, 10012, -7, 6.4, 5
COc1ccc(S(=O)(=O)NC2(C(F)(F)F)NC(=O)N(CCc3ccccc3)C2=O)cc1 (stereo unspecified)
→ 2, 9, 4, 3538, 0, 2.6, 17
O=C(CN1C(=O)C2CC=CCC2C1=O)Nc1ccc(S(=O)(=O)Nc2nccs2)cc1 (stereo unspecified)
→ -11, 16, 11, 4945, -18, 2.0, 5
CCCc1cc(C(=O)Nc2ccc(C(=O)c3ccc(C)cc3)cc2)n(C)n1
→ -11, -4, 5, 4572, 5, -4.1, -18
COc1ccc2cc(C(=O)C3CCCN(C(=O)c4ccnn4C)C3)ccc2c1 (stereo unspecified)
→ -8, 4, 3, 4230, -13, 3.5, -6
CCOC(=O)c1c(Nc2nc(C)c(C(=O)NC)s2)sc(C)c1C
→ -1, nt, nt, 2788, -45, -1.0, -14
CCOC(=O)Cn1c(CN(C)Cc2ccccc2)nc2c1c(=O)n(C)c(=O)n2C
→ -3, 6, 12, 4447, -22, -0.9, 8
COC(=O)c1ccc(C=NNC(=O)CNc2cccc(C)c2)cc1
→ nt, 0, -1, nt, nt, -1.8, -4
Cn1c(O)c(C(=Nc2ccc(F)cc2)c2ccccc2)c(=O)n(C)c1=O
→ -10, -2, -14, nt, -32, 3.0, 2

The list continues.
Below each SMILES: BJeLR lethal, Mtb hypoxia rep, Mtb hypoxia rep growth, Bead autofluor, PrP UTR inh, Sa RN4220 lethal, Sa ugtP lethal
Cc1cccc(N2CCN(C(=O)c3cc(=O)[nH]c4ccccc34)CC2)c1C
→ 9, 0, 0, 5296, -6, 0.2, 7
O=C(CCc1ccc(S(=O)(=O)NCCc2ccccc2)cc1)NCc1ccco1
→ 2, nt, nt, 3550, -4, 2.6, 7
O=C(Nc1ccccc1)c1ccc(=O)n(Cc2ccc(F)c(F)c2)c1
→ 5, 16, 9, 2693, -13, 0.7, -4
CCN(CC)C(=O)c1cn(CCC#N)nc1-c1ccc(F)cc1
→ -11, 1, 0, 4158, -3, 0.7, 1

Taken from above:
Bead autofluor result of CC(C)c1ccccc1OCC(=O)N1CCCCCCC1 = 3875
Bead autofluor result of C=CCNC(=S)Nc1cc(Cl)ccc1OC = 2141
Mtb hypoxia rep result of CCOC(=O)N1CCN(S(=O)(=O)c2cc(OCC(N)=O)c(C)cc2Cl)CC1 = 11
